# Screens as filed in PubChem BioAssay.
# Menin-MLL FL inh: inhibitors of human menin-MLL interaction, wild-type MLL peptide; Fluorescence polarization, fluorescein-MLL peptide displacement from menin; FP activity change, % at 61.4 µM; 290,000 tested, under 10 active; AID 1766; inconclusive = falling polarisation curve, or a change in total fluorescence; inactive = total fluorescence flat and polarisation flat or rising; no compound was filed as active; the % refers to the polarisation; negative = inhibition;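 note: % of control where 0% means no effect; inhibitors lower the polarisation; unlabelled MLL peptide was the positive control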
# ClpP mod: qHTS Assay for Activators of ClpP | ATP-dependent Clp protease proteolytic subunit (Bacillus subtilis (strain 168)), P80244 | purified B. subtilis ClpP, FRET peptide cleavage, 20 min | Potency, µM (highest dose often 57.5 µM), without a hit: at the highest dose activity change, negative = active | hit rate 1.9% among 340,000; active = well fitted falling curve with a large enough effect; inconclusive = small, poorly fitted or top-dose-only effect; inactive = no such curve, though single readings can be large or run the other way; note: potency is the fitted concentration of half-maximal effect; the source files actives as falling curves though it sought activators and does not explain the sign; nearly all actives have a fitted effect of over 65% in size; many hits overshoot -100%
# Target sequence (P80244 whole entry, looked up): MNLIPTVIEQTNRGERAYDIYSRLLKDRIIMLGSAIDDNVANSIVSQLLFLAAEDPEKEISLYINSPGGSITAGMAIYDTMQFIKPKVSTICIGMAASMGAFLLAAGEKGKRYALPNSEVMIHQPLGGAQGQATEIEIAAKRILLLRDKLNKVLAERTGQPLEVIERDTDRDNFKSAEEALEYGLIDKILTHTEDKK
#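 ClpP 10 microg/mL final, pH 8 Tris/KCl buffer with BSA, glycerol, Tween-20; compound pinned in; FRET-FV substrate; RT 20 min; Ex320/Em430; ΔFRET vs ADEP 5.8 microM, DMSO, no enzyme.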
# TRPV1 PAM: enhances activation of the human vanilloid receptor TRPV1 | TRPV1-expressing cells, Fluo-8 calcium influx, capsaicin EC20 potentiation; host cell line not named in the record; control for the full effect not named in the record | potentiation, % at 8.33 µM | hit rate 0.02% among 320,000 | AID 540277; active means potentiation above 80%; inconclusive means 30% to 80%; inactive means below 30%; note: 0% is about no effect
#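 TRPV1-expressing cells were cultured overnight at 35.5C and loaded with Fluo-8 calcium dye for 40 to 90 min at room temperature. After a 10 s baseline, compound was added and calcium influx was read kinetically for 3 min (ex 480/em 520 nm).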
# gsp ag: gsp mutant agonism. gsp mutant cells, cAMP HTRF, 30 min; control for the full effect not named in the record. Potency, µM (titrated, usually from 76.9 µM), for inactives: top-dose activation (cAMP increase), actives largely listed as activators. AID 624287. hit rate 0.13% among 340,000; active = well fitted activation curve with a large enough effect; inconclusive = small, poorly fitted or top-dose-only effect, or another doubt; inactive = no such curve, though single readings can be large or run the other way; cell line not stated here;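 note: phosphodiesterase inhibitor Ro 20-1724 added with compounds to block cAMP breakdown; potency is the fitted concentration of half-maximal effect; nearly all actives have a fitted effect of over 60% in size; about a fifth of the inactives were tested at one dose only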
#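 Cells in DMEM/10% FBS with G418 were pretreated with compounds in DMSO plus […] (300 uM stock) for 30 min at 37C. cAMP was measured by HTRF (cAMP-d2 plus anti-cAMP antibody-K) after 30 min at room temperature.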
# gsp antag: antagonists of gsp mutant (McCune-Albright syndrome) | gsp-mutant cells, cAMP HTRF, 30 min; control for the full effect not named in the record | Potency, µM (titrated, usually from 76.9 µM), for inactives: at the highest dose activity change, negative = inhibition, usual class: inhibitors | hit rate 0.4% among 340,000 | AID 624288; active = falling curve of any shape with a large fitted effect; inconclusive = falling curve, mostly with a smaller effect; inactive = flat or rising curve; cell line not stated here;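 note: intracellular cAMP measured with PDE inhibitor Ro 20-1724 present during compound exposure; potency is the fitted concentration of half-maximal effect; % is set by controls: 0 for no effect and ±100 for the full control effect; nearly all actives have a fitted effect of over 65% in size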
#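 HTRF cAMP read-out (cAMP-d2 plus anti-cAMP antibody-K in lysis buffer, 30 min RT). Before lysis, cells are exposed to compounds with […] for 30 min at 37C in DPBS containing Ca/Mg, BSA and Tween 20.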
# Sfp inh: blocks B. subtilis Sfp PPTase activity. Potency, µM, for inactives: max response, negative = inhibition, most hits filed as inhibitors. Biochemical Sfp PPTase activity, qHTS. hit rate 3.5% among 310,000; active = well fitted inhibition curve with a large enough effect; inconclusive = small, poorly fitted or top-dose-only effect, or another doubt; inactive = no such curve, though single readings can be large or run the other way;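 note: the enzyme is Sfp with the accession as filed and its product quenches rhodamine fluorescence; potency is the fitted concentration of half-maximal effect; 0% = enzyme reaction without inhibitor and -100% = no enzyme wells; top concentration of the series not given in the record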
#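 After 15 min at room temperature with compound, 15 nM Sfp received 5 uM rhodamine-CoA plus 12.5 uM BHQ-2-ybbR (50 mM Hepes pH 7.6, 10 mM MgCl2). Rate came from the fluorescence difference over 30 min, ex 525/em 598 nm.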
# D2 PAM: positive allosteric modulators of human D2 dopamine receptor; potentiation, % (no concentration beside the values); AID 624464; DiscoveRx D2 beta-arrestin cells, luminescence, 90 min; 100% = 57 uM dopamine signal; hit rate 0.23% among 360,000; P14416; active = potentiation of 50% or more; inconclusive = 30% to 50%; inactive = 30% or less;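 note: compound concentration not given in the record; tested on top of an EC20 dose of dopamine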
# Target sequence (P14416 whole entry, looked up): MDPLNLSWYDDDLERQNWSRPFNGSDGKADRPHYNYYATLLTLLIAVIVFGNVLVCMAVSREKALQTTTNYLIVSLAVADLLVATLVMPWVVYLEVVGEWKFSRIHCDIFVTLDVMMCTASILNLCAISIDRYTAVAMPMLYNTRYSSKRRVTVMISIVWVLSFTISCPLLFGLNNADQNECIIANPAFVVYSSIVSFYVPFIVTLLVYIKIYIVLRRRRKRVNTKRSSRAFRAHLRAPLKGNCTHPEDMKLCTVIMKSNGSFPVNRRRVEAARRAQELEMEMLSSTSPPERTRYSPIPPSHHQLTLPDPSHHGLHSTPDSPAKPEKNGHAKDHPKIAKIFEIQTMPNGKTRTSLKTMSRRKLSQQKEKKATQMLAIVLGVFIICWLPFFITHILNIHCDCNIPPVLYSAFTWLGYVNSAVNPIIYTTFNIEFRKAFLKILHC
#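 PathHunter D2 cells, attached overnight at 37 deg C, received compound in DMSO plus dopamine at EC20 (50 nM final) for 90 min at 37 deg C. Beta-arrestin recruitment was read as luminescence after 1 h with detection reagent at ambient temperature.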
# Active calls of the source: *; ? = inconclusive; / = no result given; [ ] = dose if it differs, or a comment. A portion of the library, so the mix of outcomes need not match the whole.
# Sample of the layout:
nr	canonical_smiles	Menin-MLL FL inh	ClpP mod	TRPV1 PAM	gsp ag
1	COc1ccc(N=Nc2c(O)[nH]c(=S)[nH]c2=O)cc1	?	/	17.1	20.3%[15.4 µM]
2	CC(NCc1ccc(Cl)c(Cl)c1)C(O)c1ccccc1 (centres undefined)	2.1	-0.6%	-2.7	-42.0%[inhibitor]

nr	gsp antag	Sfp inh	D2 PAM
1	-75.2%	-26.9%	-29.9
2	11.2%	7.3%	-25.5

# This part in full, from the start:
nr	canonical_smiles	Menin-MLL FL inh	ClpP mod	TRPV1 PAM	gsp ag
1	COc1ccc(N=Nc2c(O)[nH]c(=S)[nH]c2=O)cc1	?	/	17.1	20.3%[15.4 µM]
2	CC(NCc1ccc(Cl)c(Cl)c1)C(O)c1ccccc1 (centres undefined)	2.1	-0.6%	-2.7	-42.0%[inhibitor]
3	Cc1[nH]c2ccccc2c1CN1CCCCC1	/	?	/	-8.1%
4	O=C1NC(=O)C2(CCN(S(=O)(=O)c3ccccc3)CC2)C(=O)N1	/	/	/	-7.6%
5	COC(=O)C1=C(c2ccc(F)cc2OCc2ccccc2)C[C@@H]2CC[C@H]1N2C(=O)NCc1ccc(C(C)(C)C)cc1	/	-2.6%	9.1	14.9%
6	N#CC12CNCC1CN=N2 (centres undefined)	3.9	0.3%	-3.2	0.5%
7	Cc1ccc(OCC(=O)N2CCN(C)CC2)c(Br)c1	1.6	-1.2%	4.2	-9.0%
8	CCNc1nc2[nH]c(=O)c3c(c2s1)OC(N)=C(C#N)C3c1cccs1 (centres undefined)	9.2	-8.9%	-29.0	1.2%

nr	gsp antag	Sfp inh	D2 PAM
1	-75.2%	-26.9%	-29.9
2	11.2%	7.3%	-25.5
3	10.8%	/	-20.7
4	7.5%	/	-8.6
5	-1.2%	/	-0.7
6	-1.9%	-1.0%	4.4
7	7.5%	18.6%	-7.8
8	-7.6%	-16.5%	4.6

# The results go on:
nr	canonical_smiles	Menin-MLL FL inh	ClpP mod	TRPV1 PAM	gsp ag
9	C=Cn1ccnc1P(=S)(c1nccn1C=C)C1CCCCC1	-1.2	-1.9%	-12.1	2.1%
10	Oc1ccccc1-[n+]1c(-c2ccccc2)cc(-c2ccccc2)cc1-c1ccccc1	/	1.9%	-9.2	/
11	COc1cccc(C(=O)C2CCCN(Cc3cccc4c3OCO4)C2)c1 (centres undefined)	-2.7	-0.8%	4.9	1.2%
12	C=C1C(C)C2C(Cc3ccccc3)NC(=O)C23OC(=O)/C=C/C(O)CCCC(C)C/C=C/C3C1O (centres undefined)	/	-15.2%	/	10.8%
13	OCC(Br)CBr (centres undefined)	/	-0.1%	4.8	/
14	COC(=O)C1=C(c2ccc(F)cc2F)C[C@@H]2CC[C@H]1N2C(=O)N1CCC(O)(c2ccc(Cl)cc2)CC1	/	-0.7%	-1.3	3.2%
15	Cn1c(O)c(C=NCCCC(=O)O)c(=O)n(C)c1=O	4.4	-1.4%	-3.3	18.2%
16	O=C(O)C(Cl)(Cl)Cl	2.6	0.1%	/	/

nr	gsp antag	Sfp inh	D2 PAM
9	-6.7%	-2.3%	8.1
10	0.7%	/	-11.0
11	-3.8%	-3.4%	-11.0
12	4.0%	/	-17.1
13	-2.3%	/	-4.4
14	-20.5%	/	-10.9
15	1.8%	-1.5%	2.3
16	-1.7%	13.0%	5.2

# Next section.
nr	canonical_smiles	Menin-MLL FL inh	ClpP mod	TRPV1 PAM	gsp ag
17	c1coc(CN2Cc3ccccc3-n3nncc3C2)c1	/	-1.8%	/	-29.8%
18	Cc1nc2ccccc2c(=O)n1-c1ccc([N+](=O)[O-])cc1	4.0	/	1.9	-34.3%[inhibitor]
19	CC1(O)CCC2C3CCC4=CC(=O)CCC4(C)C34OC4CC21C (centres undefined)	/	/	/	7.6%
20	CCCOC(=O)Nc1ccc([As](=O)(O)O)cc1NC(=O)OCCC	-7.1	/	26.2	6.4%[15.4 µM]
21	C#CC1(O)CCC2C3CCC4=CC(=O)CCC4=C3C=CC21C (centres undefined)	/	28.2µM*	/	2.8%
22	Clc1ccc(-c2nc3ccc(Cl)cn3c2CN2CCCCC2)cc1	-8.3	-24.5%	1.0	-35.5%
23	CC1=CC2OC3CC4OC(=O)C=CC=CC(C(C)O)OCC(O)C5(C)OC5C(=O)OCC2(CC1O)C4(C)C31CO1 (centres undefined)	/	-2.3%	/	25.4%
24	O=[N+]([O-])c1ccc(C(=Nc2ccccc2)N2CC2)cc1	/	2.3%	/	-25.3%

nr	gsp antag	Sfp inh	D2 PAM
17	/	/	-2.9
18	15.0%	2.0%	2.6
19	-4.8%	/	-1.7
20	12.0%	-9.8%	-0.2
21	-23.1%	/	4.8
22	?	-3.8%	-13.4
23	9.4%	/	-16.4
24	4.7%	/	-10.6

# (more compounds)
nr	canonical_smiles	Menin-MLL FL inh	ClpP mod	TRPV1 PAM	gsp ag
25	C[C@]12CCC3C(CC[C@H]4C[C@@H](O)CC[C@]34C)C1=CC[C@@H]2O (some centres undefined)	/	1.4%	/	-169.3%[inhibitor]
26	COc1ccccc1CC1C(=O)C2CCN1CC2 (centres undefined)	3.0	-1.3%	27.9	-4.3%
27	O=C1NC(=O)N(c2cccc(Cl)c2)C(=O)/C1=C\c1ccc(Sc2nc3ccccc3[nH]2)o1	?	0.2%	-1.0	21.0%
28	Clc1ccccc1CN1CCN(c2cccc3[nH]ccc23)CC1	-0.3	1.0%	0.8	-29.0%
29	C=CCn1c(O)c(/C=N/N2CCCCC2c2cccnc2)c(=O)[nH]c1=S (centres undefined)	11.0	1.1%	-0.5	10.8%
30	Cc1ccccc1NC1=NCCCS1	0.2	0.4%	-2.7	9.5%
31	O=C(Cc1c[nH]c2ccccc12)NNCc1ccc(N(CCCl)CCCl)cc1	/	/	/	13.1%
32	COC(=O)C1=C(c2cccc(OCc3ccccc3)c2)C[C@@H]2CC[C@H]1N2C(=O)NCCCc1ccccc1	/	-4.1%	6.4	-0.1%

nr	gsp antag	Sfp inh	D2 PAM
25	/	/	-3.0
26	10.5%	1.3%	-11.4
27	-2.9%	39.8µM*	-12.5
28	2.4%	11.5%	-6.1
29	8.5%	8.8%	16.8
30	13.1%	25.5%	-11.0
31	-3.1%	/	-7.5
32	-12.4%	/	-9.6

# (list continues)
nr	canonical_smiles	Menin-MLL FL inh	ClpP mod	TRPV1 PAM	gsp ag
33	Cc1ccc2nc3c(cc2c1)CC1(C(=O)N(C)C(=O)N(C)C1=O)C1CCCCN31 (centres undefined)	-0.2	-7.8%	?	-12.9%
34	Cc1cccc(NP(=O)(Oc2ccccc2F)Oc2ccccc2F)c1C	/	-0.3%	-7.6	26.3%[15.4 µM]
35	COC(=O)c1cn(C(=O)c2cccc3ccccc23)c2ccccc12	1.3	-7.6%	-10.4	0.1%
36	COc1ccccc1CC1/C(=N/O)C2CCN1CC2 (centres undefined)	-1.9	0.2%	3.4	-4.9%
37	COc1cc(C(O)CN)ccc1O (centres undefined)	5.5	1.6%	2.5	/
38	CN1C(=O)N(C)C(=O)C2(Cc3cc(NC(=O)c4ccccc4)ccc3N3CCCC32)C1=O (centres undefined)	10.2	-8.8%	-10.4	0.2%
39	O=C(c1ccccc1)N1CCC2(CC1)OCCO2	0.2	-3.3%	5.6	-4.3%[15.4 µM]
40	CCOC(=O)N1CCN(Cc2cn3ccccc3n2)CC1	-1.0	-11.5%	12.6	11.1%

nr	gsp antag	Sfp inh	D2 PAM
33	-16.7%	?	-6.6
34	-25.1%	-10.0%	9.0
35	7.7%	-16.0%	6.6
36	-0.5%	-8.2%	0.4
37	2.8%	/	-8.4
38	-3.8%	-3.5%	-10.8
39	4.4%	-4.5%	-7.2
40	4.0%	56.2µM*	-14.0

# Next part:
nr	canonical_smiles	Menin-MLL FL inh	ClpP mod	TRPV1 PAM	gsp ag
41	O=C(c1ccc(CNS(=O)(=O)c2ccc(Br)cc2)cc1)N1CCC2(CC1)OCCO2	-0.5	1.0%	-1.4	-1.2%[15.4 µM]
42	COC(=O)C1=C(c2cccc(OC)c2OC)C[C@@H]2CC[C@H]1N2C(=O)N1CCOCC1	/	1.8%	/	/
43	CCOC(=O)C1CCN(C=C2C(=O)N(C)C(=S)N(C)C2=O)CC1	6.6	8.5%	22.3	-7.1%
44	CCN(CC)CCCN=Cc1c(O)n(Cc2ccc(F)cc2)c(=O)[nH]c1=O	0.0	-0.9%	0.9	26.2%
45	COc1cc2c3cc1Oc1cc(ccc1O)C[C@@H]1c4c(cc(OC)c(O)c4Oc4ccc(cc4)C[C@H]3N(C)CC2)CCN1C	-0.3	0.0%	-7.3	/
46	COC(=O)C1C2c3ccccc3OC1(C)N=c1s/c(=C/c3cnn(C)c3)c(=O)n12 (centres undefined)	4.1	0.5%	18.2	16.9%
47	CN1CCC23c4c5ccc(O)c4O[C@@H]2[C@H](O)C=CC3C1C5 (some centres undefined)	/	-0.3%	/	/
48	C=CCn1c(O)c(C(CC)=NCC2CCCO2)c(=O)[nH]c1=O (centres undefined)	1.1	-2.0%	9.4	-1.6%[15.4 µM]

nr	gsp antag	Sfp inh	D2 PAM
41	-1.3%	3.5%	-5.5
42	3.9%	/	1.7
43	2.1%	-3.9%	-14.3
44	1.8%	3.7%	1.5
45	-0.1%	-4.6%	1.2
46	-12.9%	25.8%	-0.3
47	-7.1%	/	-7.2
48	5.5%	9.3%	-4.6

# Remaining list, next part.
nr	canonical_smiles	Menin-MLL FL inh	ClpP mod	TRPV1 PAM	gsp ag
49	CC(=NCc1ccco1)c1c(O)n(-c2ccc(C)cc2)c(=O)[nH]c1=O	2.0	1.7%	/	-1.6%
50	COP(=O)(OC)c1nc(-c2ccc([N+](=O)[O-])cc2)oc1N1CCCCC1	?	-4.8%	-8.1	-6.3%
51	CSc1nnc(C2CCNCC2)n1C	?	-1.5%	-12.8	-3.4%
52	O=S(=O)(NC1CCCCC1)OCC(Cl)(Cl)Cl	-6.2	-0.2%	-16.2	-12.7%
53	COc1ccc(N=C2SCCCN2C)cc1	1.9	0.5%	-1.4	-2.3%

nr	gsp antag	Sfp inh	D2 PAM
49	6.5%	8.0%	-27.0
50	-15.7%	0.1%	-0.6
51	6.4%	-12.9%	/
52	19.5%	10.0%	-6.4
53	-2.5%	11.4%	-15.7
